Compound activity (PubChem)
StopGo FLuc – FMDV 2A StopGo reporter, firefly signal. AID 1745856. 0.23% of 120,000 active. Potency, µM (highest dose often 57.5 µM), for inactives: at the highest dose signal change, negative = less light. HEK cells with a luciferase reporter of 2A StopGo recoding; active = well fitted falling curve with a large enough effect; inconclusive = small, poorly fitted or top-dose-only effect; inactive = no such curve, though single readings can be large or run the other way; further: nearly all actives have a fitted effect of over 60% in size; overnight with compound
StopGo RLuc – FMDV 2A StopGo reporter, Renilla signal; HEK cells with a luciferase reporter of 2A StopGo recoding; Potency, µM (top dose mostly 57.5 µM), without a hit: top-dose signal change, negative = less light; 0.32% of 120,000 active; AID 1745857; active means well fitted falling curve with a large enough effect; inconclusive means small, poorly fitted or top-dose-only effect; inactive means no such curve, though single readings can be large or run the other way; further: nearly all actives have a fitted effect of over 55% in size; overnight with compound
An asterisk follows results filed as active; u = inconclusive; [ ] = another dose, or the depositor's remark. On the % scale 0 is the no-effect control and ±100 the full control effect; potency means the concentration at half of the fitted maximal effect. Not all compounds are listed. The share of hits here may be higher or lower than overall.

[1] Cc1nonc1CN1CCN(C(C(=O)O)c2c[nH]c3cc(Cl)ccc23)CC1 (stereo not given)
[2] Cc1cccc(NC(=O)C(NS(=O)(=O)c2cccc3nsnc23)c2ccccc2)c1C (stereo not given)
[3] COc1ccc(S(=O)(=O)N(C)C)cc1NC(=O)c1n[nH]c(=O)c2ccccc12
[4] O=C(/C=C/c1ccc(Cl)cc1)c1cc2ccccc2oc1=O
[5] Cc1cc(C(C)(C)c2ccc(O)c(C)c2)ccc1O
Screen / compound no. | 1 | 2 | 3 | 4 | 5
StopGo FLuc | -1.5% | -12.2% | 6.7% | 18.4% | 11.4%
StopGo RLuc | -6.5% | 52.4%[activator] | 15.5% | -4.8% | 11.3%

[6] Cc1ccc(NC(=O)CN2C(=O)CCc3cc(S(=O)(=O)N4CCCCC4)ccc32)cc1N(C)C
[7] O=C(NCc1ccccc1Cl)C1CCC(CNS(=O)(=O)c2ccc(Br)s2)CC1 (stereo not given)
[8] O=C(NCc1ccc2c(c1)CCN2C(=O)c1ccc(Cl)cc1)c1cccc(F)c1
[9] Cc1ccc(OCc2cc(=O)n3c4c(sc3n2)CCCC4)c(C)c1
[10] COc1ccc(/C=C/C(=O)Nc2ccc3nc4c(c(Nc5ccccc5OC)c3c2)CCCC4)cc1
Screen / compound no. | 6 | 7 | 8 | 9 | 10
StopGo FLuc | -10.6% | -8.9% | -24.4% | -9.5% | u
StopGo RLuc | 11.8% | 8.1% | 15.5% | 1.7% | 1.2%

[11] CC(C)(CO)C(O)C(=O)NCCCS(=O)(=O)O (stereo not given)
[12] CN(C(=O)CSc1nnc(-c2cccs2)n1N)C1CCCCC1
[13] COc1ccc(NC(=O)CN2C(=O)C(c3ccccc3)=NC23CCC(C)CC3)cc1Cl (stereo not given)
[14] Cc1ccccc1NC(=O)C(C)N(C)Cc1ccc2ccccc2c1 (stereo not given)
[15] Cc1ccccc1Cc1c(C)nc2nc(SCC(=O)N(C)c3ccccc3)nn2c1C
Screen / compound no. | 11 | 12 | 13 | 14 | 15
StopGo FLuc | 19.0% | 6.3% | 0.0% | 23.0% | 0.0%
StopGo RLuc | 7.9% | -7.6% | -0.5% | 31.1%[activator] | -15.5%

[16] Cc1ccc(C)c(OC(=O)c2ccc(CSc3ccc(Cl)cc3)cc2)c1C
[17] COc1ccc(Cl)cc1NC(=O)C1CCCN(S(=O)(=O)c2ccc3c(c2)CCCC(=O)N3)C1 (stereo not given)
[18] N#Cc1ccc(COc2ccc(I)cc2)cc1
[19] COc1ccc(C(=O)Nc2nc(-c3nc4ccccc4s3)cs2)cc1
[20] CCCN(C(=O)c1cc2c(s1)-c1ccccc1OC2)c1ccccc1F
Screen / compound no. | 16 | 17 | 18 | 19 | 20
StopGo FLuc | 21.5% | 2.2% | 104.2%[activator] | 91.0%[activator] | 33.6%[activator]
StopGo RLuc | 2.8% | -5.2% | 16.8% | 2.7% | 0.0%

A different layout for 5 compounds above.
Every second line gives: StopGo FLuc | StopGo RLuc
19	COc1ccc(C(=O)Nc2nc(-c3nc4ccccc4s3)cs2)cc1
→ 91.0%[activator] | 2.7%
16	Cc1ccc(C)c(OC(=O)c2ccc(CSc3ccc(Cl)cc3)cc2)c1C
→ 21.5% | 2.8%
17	COc1ccc(Cl)cc1NC(=O)C1CCCN(S(=O)(=O)c2ccc3c(c2)CCCC(=O)N3)C1 (stereo not given)
→ 2.2% | -5.2%
20	CCCN(C(=O)c1cc2c(s1)-c1ccccc1OC2)c1ccccc1F
→ 33.6%[activator] | 0.0%
18	N#Cc1ccc(COc2ccc(I)cc2)cc1
→ 104.2%[activator] | 16.8%

(more compounds)
[21] Cc1ccc(NC(=O)CSc2n[nH]c(=O)c3cc(-c4ccco4)nn23)cc1
[22] O=C(CCn1c(=O)c2ccccc2n(Cc2ccc(F)cc2Cl)c1=O)NCc1ccc2c(c1)OCO2
[23] Cc1cc(NC(=O)CCCn2c(C)c3cnn(-c4ccccc4)c(=O)c3c2C)ccc1Br
[24] CCNc1c(NS(=O)(=O)c2ccc(OC)cc2)c(=O)oc2ccccc12
[25] CC(C)c1ccc(-c2noc(SCC(=O)N(C)c3ccc(F)cc3)n2)cc1
Screen / compound no. | 21 | 22 | 23 | 24 | 25
StopGo FLuc | 84.7%[activator] | -7.1% | 2.5% | 62.7%[activator] | -1.4%
StopGo RLuc | 0.0% | -3.8% | -9.1% | 11.4% | -13.6%

[26] Cc1c(C(=O)Nc2ccccc2)sc(N)c1C#N
[27] CCOc1ccc(Nc2c(S(=O)(=O)c3ccc(Cl)cc3)cnc3ccc(OCC)cc23)cc1
[28] CC(C)n1nc(C(=O)N2CCN(Cc3ccccc3)CC2)c2ccccc2c1=O
[29] CCCn1cc(S(=O)(=O)c2ccc(OC)cc2)c(=O)c2cc(F)c(N3CCCC(C)C3)cc21 (stereo not given)
[30] Cc1ccc2cc3cc(C(=O)NC4CCCCCC4)sc3nc2c1
Screen / compound no. | 26 | 27 | 28 | 29 | 30
StopGo FLuc | 191.6%[activator] | 0.8% | -15.0% | -19.7% | 150.9%[activator]
StopGo RLuc | 1.9% | 13.5% | -9.8% | -12.8% | 35.2%[activator]

[31] c1ccc(Nc2nc(NCc3ccc4c(c3)OCO4)nc3nccnc23)cc1
[32] CNC(=S)NNC(=O)c1csc(C)c1
[33] CC(=O)c1[nH]c(C)c(C(=O)NCc2ccc(Cl)cc2)c1C
[34] O=C(COc1cc(Cl)c(Cl)cc1Cl)Nc1ccc2oc(-c3ccncc3)nc2c1
[35] CCOC(=O)c1ccccc1NC(=O)CSc1ccc(-c2sc(-c3ccccc3)nc2C)nn1
Screen / compound no. | 31 | 32 | 33 | 34 | 35
StopGo FLuc | -6.8% | -0.3% | 11.2µM* | -5.8% | -13.0%
StopGo RLuc | 14.3% | -7.5% | u | -15.7% | -16.6%

[36] O=C(NC1CCCCC1)c1cccnc1Cl
[37] C1CCC(CN2CCNCC2)C1
[38] CCc1ccc(C(=O)N(C)Cc2cccs2)s1
[39] COc1ccc(-n2c(=O)c3c4c(sc3n(CC(=O)C(C)(C)C)c2=O)CCCC4)c(OC)c1
[40] Cc1ccc(F)cc1NC(=S)NCc1ccccc1
Screen / compound no. | 36 | 37 | 38 | 39 | 40
StopGo FLuc | 39.8%[activator] | 5.1% | 217.8%[activator] | 3.7% | 8.0%
StopGo RLuc | 12.3% | 3.5% | 71.4%[activator] | 6.6% | 165.9%[activator]

[41] COc1ccc(OC)c(NC(=O)CCc2nc(-c3ccc(C)cc3)no2)c1
[42] Cc1ccc(-c2nc3ncccc3o2)cc1NC(=O)c1ccc(-c2cccc(Cl)c2C)o1
[43] N#CCSc1nnc(-c2ccccc2)n1-c1ccc(F)cc1F
[44] COc1ccccc1NC(=O)Cn1nc(C(=O)O)c2ccccc2c1=O
[45] Cc1nc2ccc(CN(C)c3ccc(C(=O)N[C@@H](CCC(=O)O)C(=O)O)s3)cc2c(=O)[nH]1
Screen / compound no. | 41 | 42 | 43 | 44 | 45
StopGo FLuc | -0.2% | 30.7% | -12.4% | -2.2% | -5.2%[11.5 µM]
StopGo RLuc | 0.4% | 15.1% | -12.4% | -6.9% | 1.3%

[46] CC(C)NC(=O)CSc1ncc(-c2ccc(Br)cc2)o1
[47] CC1=C(C(=O)Nc2ccc(F)cc2F)C2(CCN(C(C)C)CC2)OC1=O
[48] COc1ccccc1-c1noc(CN2CCCc3c(C(=O)NC(C)C)cccc32)n1
[49] COc1ccc(C(CNC(=O)c2nn(C)c(=O)c3ccccc23)N(C)C)cc1 (stereo not given)
[50] COC(=O)c1ccc(Cl)cc1NC(=O)NCCc1c(C)nn(C)c1C
Screen / compound no. | 46 | 47 | 48 | 49 | 50
StopGo FLuc | 13.4% | -2.4% | -1.6% | 19.5% | 0.0%
StopGo RLuc | -3.0% | 4.3% | -5.8% | -4.7% | 5.1%

[51] O=C(CCS(=O)(=O)c1ccc(Br)s1)Nc1c(F)cccc1F
[52] CCOC(=O)c1cc(-c2ccc(F)cc2)n(CC(=O)NCc2ccc(OC)cc2)c1C
[53] O=C(NCCCNC(=O)c1cc2ccccc2[nH]1)c1ccc(-c2ccccc2)cc1
[54] Nc1cc(=O)nc(SCC(=O)Nc2ccccc2)n1CCc1ccccc1
[55] CCN(CC)CCNCc1cccs1
Screen / compound no. | 51 | 52 | 53 | 54 | 55
StopGo FLuc | 30.0%[activator] | -10.8% | 19.5% | 36.6%[activator] | 21.5%
StopGo RLuc | 38.8%[activator] | -7.6% | 0.4% | -3.1% | -4.6%

[56] CC(=O)N1c2ccc(S(=O)(=O)NCC3CCC(C(=O)Nc4cc(C)ccc4C)CC3)cc2CC1C (stereo not given)
[57] Cc1ccccc1C(=O)NC(C)c1nc(-c2ccccc2Cl)no1 (stereo not given)
[58] COCCCNC(=O)C(C)n1c2ccccc2c2cnn(C)c(=O)c21 (stereo not given)
[59] COCCN1C2=C(C(=O)CC(C)(C)C2)C(c2cccc(O)c2)C2=C1CC(C)(C)CC2=O
[60] Cn1c2ccccc2c2cnn(CC(=O)Nc3ccccc3C(F)(F)F)c(=O)c21
Screen / compound no. | 56 | 57 | 58 | 59 | 60
StopGo FLuc | 22.1% | 3.6% | -13.0% | 2.8% | -11.6%
StopGo RLuc | 2.2% | 0.0% | -15.5% | 77.5%[activator] | -14.3%

[61] N/C(=C\C(=O)c1ccccc1)C(F)(F)F
[62] Cc1ccc(OCC(=O)N/N=C/c2cccc(O)c2)cc1
[63] O=C(OCC(=O)N(Cc1ccccc1)C1CCS(=O)(=O)C1)c1n[nH]c2ccccc12 (stereo not given)
[64] CCOc1ccccc1C(=O)Nc1cc2c(cc1N1CCOCC1)n(C)c(=O)n2C
[65] COc1cc(NC(=O)Cn2c(C(=O)c3cccc(F)c3)nc3ccccc32)cc(OC)c1
Screen / compound no. | 61 | 62 | 63 | 64 | 65
StopGo FLuc | -1.0% | 13.0% | -1.2% | 75.4%[activator] | 7.6%
StopGo RLuc | 3.7% | -1.0% | -6.8% | 50.0%[activator] | -6.3%

[66] Cc1ccc(S(=O)(=O)N2CCCN(C(C(=O)NC3CC3)c3ccccc3)CC2)cc1 (stereo not given)
[67] CCOc1cc(-c2nnc(SCC(=O)NCc3ccc(C)cc3)nc2-c2ccc(OC)c(OCC)c2)ccc1OC
[68] Cc1cccn2c(Nc3ccccc3)c(-c3cccs3)nc12
[69] Cc1cc(C)c2oc(C(=O)N(Cc3cccc(Cl)c3)C3CCS(=O)(=O)C3)cc(=O)c2c1 (stereo not given)
[70] Cc1nc2ccc(NC(=O)CC3CCCC3)cc2s1
Screen / compound no. | 66 | 67 | 68 | 69 | 70
StopGo FLuc | -12.7% | -21.0% | 12.1% | -5.2% | 86.1%[activator]
StopGo RLuc | -2.1% | 10.7% | -5.4% | -1.0% | 14.3%

From entry 67 to 68, copied from above:
[67] CCOc1cc(-c2nnc(SCC(=O)NCc3ccc(C)cc3)nc2-c2ccc(OC)c(OCC)c2)ccc1OC
[68] Cc1cccn2c(Nc3ccccc3)c(-c3cccs3)nc12
Screen / compound no. | 67 | 68
StopGo FLuc | -21.0% | 12.1%
StopGo RLuc | 10.7% | -5.4%

(continued)
[71] CSc1ccc(CNC(=O)c2cc3c(=O)n(Cc4ccco4)ccc3nc2C)cc1
[72] COc1ccc(-c2nc3c4ccccc4n(CC(=O)N4CCN(c5ccccc5OC)CC4)c(=O)n3n2)cc1
[73] CSCc1ccc(C(=O)Nc2ccc(F)cc2Cl)o1
[74] CC(C)N1CC(C(=O)Nc2nc3c(s2)CCC3)CC1=O (stereo not given)
[75] CC1CCc2c(sc3ncnc(N(C)CC(=O)N(C)C)c23)C1 (stereo not given)
Screen / compound no. | 71 | 72 | 73 | 74 | 75
StopGo FLuc | -20.0% | -10.3% | 220.9%[activator] | 14.1% | 25.5%
StopGo RLuc | 14.0% | -17.4% | 2.9% | 0.3% | -22.3%

[76] Cn1cc(C(=O)NCCNC(=O)c2ccccc2)c2ccccc21
[77] CCCNc1nc2ccccc2nc1C(=O)Nc1cc(C)cc(C)c1
[78] CCOC(=O)c1c(C)n(CC(=O)OC)c2ccc(O)cc12
[79] CSC1=N/C(=C\c2cc(C)ccc2C)C(=O)S1
[80] CCOC(=O)C1=C(C)N=C2SCC(=O)N2C1c1ccc(OC)c(OCC)c1 (stereo not given)
Screen / compound no. | 76 | 77 | 78 | 79 | 80
StopGo FLuc | -4.1% | 4.8% | 10.6% | 17.0% | 0.0%
StopGo RLuc | -2.5% | -2.8% | 11.9% | -3.4% | 16.0%

[81] Cc1c(C(=O)Nc2cccc(Cl)c2)oc2ccc(S(=O)(=O)N(C)C3CCCCC3)cc12
[82] O=C(O)C1CCN(C(=O)CSc2nc3cc(Cl)ccc3c(=O)n2Cc2ccccc2)CC1
[83] COc1ccc(C2C(C(C)=O)=C(O)C(=O)N2c2ccc(C)cc2)c(OC)c1 (stereo not given)
[84] Cc1ccccc1NC(=O)c1c(C)oc2ccc(O)c(CN3CCCC3)c12
[85] CC(Oc1ccc(Cl)cc1Cl)C(=O)Nc1ccc(N2CCN(C)CC2)nc1 (stereo not given)
Screen / compound no. | 81 | 82 | 83 | 84 | 85
StopGo FLuc | -17.1% | 23.4% | 0.0% | -24.6% | -5.4%
StopGo RLuc | -7.5% | 27.8% | 56.2%[activator] | -11.2% | -12.9%

[86] CCc1ccc(NC(=O)CCc2c(C)n(C)c3cc(-c4ccccc4C)nn3c2=O)cc1
[87] CCCCc1ccc(NC(=O)CSc2nc3ccccc3nc2N2CCCCC2)cc1
[88] C/C(=N/NC(N)=S)c1ccc([N+](=O)[O-])cc1
[89] COC(=O)CSc1nc2sc3c(c2c(=O)n1Cc1ccccc1)CCC(C(C)(C)C)C3 (stereo not given)
[90] Cc1nc(NC2CCCC2)sc1C(=O)NCCC(C)C
Screen / compound no. | 86 | 87 | 88 | 89 | 90
StopGo FLuc | -10.7% | -10.6% | 43.4%[activator] | -9.4% | 28.5%
StopGo RLuc | -5.9% | -11.8% | 8.1% | -8.8% | -5.8%
